# Assay outcomes as filed in PubChem BioAssay.
# Calb FLC: affects C. albicans growth with fluconazole; actives 0.57% (n = 300,000); growth inhibition, % (no concentration beside the values); AID 1979; C. albicans CaCi-2 (fluconazole-resistant clinical isolate) + fluconazole, Alamar Blue growth, 48 h;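 active means most replicates above 75%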;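 further: all wells also contain fluconazole at 8 µg/ml as a sub-toxic cotreatment; 0% = median of DMSO wells and 100% = median of geldanamycin control wells; wells of about 8 µL received 7.5 nL stock; the first replicate is given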
# A1 inh: inhibitors of the anti-apoptotic protein A1, read as caspase activation | MEF A1-2A-BIM cells, Caspase-Glo 3/7 luminescence, 3 h; percent of clofoctol response, vehicle zero | caspase activation, % (test concentration not listed) | actives 0.066% (n = 330,000);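 active means over half of replicate activation scores above 10%, or exactly half above 10 with the replicate mean above 10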;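 further: wells of about 30 µL received 50 nL stock; many hits fall short of the cut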
# ALR inh: human ALR oxidase inhibition via reduced H2O2; actives 3.8% (n = 290,000); inhibition, % (concentration not given with the values); purified ALR, DTT oxidation, H2O2 HRP-luminol luminescence; P55789;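 active means mean and each replicate at 75% or more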;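 further: stock transfer was 7.5 nL into about 7.5 µL; 0% = neutral wells and 100% = wells with inactivated enzyme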
# LANA-H2B inh: blocks KSHV LANA binding to histone H2A/H2B | inhibition, % (test concentration not listed) | cell-free LANA-H2A/H2B peptide, fluorescence polarization | actives 0.6% (n = 320,000) | AID 2629; in the data active means inhibition mostly above about 10%, no sharp cut-off; inactive means mostly below about 6.7%;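 further: stock transfer was 7.5 nL into about 10 µL; 0% = median of vehicle wells and 100% = median of positive control wells; one replicate is shown; the record names a cut of 25% in any replicate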
# Target sequence (Q9QR71 whole entry, looked up): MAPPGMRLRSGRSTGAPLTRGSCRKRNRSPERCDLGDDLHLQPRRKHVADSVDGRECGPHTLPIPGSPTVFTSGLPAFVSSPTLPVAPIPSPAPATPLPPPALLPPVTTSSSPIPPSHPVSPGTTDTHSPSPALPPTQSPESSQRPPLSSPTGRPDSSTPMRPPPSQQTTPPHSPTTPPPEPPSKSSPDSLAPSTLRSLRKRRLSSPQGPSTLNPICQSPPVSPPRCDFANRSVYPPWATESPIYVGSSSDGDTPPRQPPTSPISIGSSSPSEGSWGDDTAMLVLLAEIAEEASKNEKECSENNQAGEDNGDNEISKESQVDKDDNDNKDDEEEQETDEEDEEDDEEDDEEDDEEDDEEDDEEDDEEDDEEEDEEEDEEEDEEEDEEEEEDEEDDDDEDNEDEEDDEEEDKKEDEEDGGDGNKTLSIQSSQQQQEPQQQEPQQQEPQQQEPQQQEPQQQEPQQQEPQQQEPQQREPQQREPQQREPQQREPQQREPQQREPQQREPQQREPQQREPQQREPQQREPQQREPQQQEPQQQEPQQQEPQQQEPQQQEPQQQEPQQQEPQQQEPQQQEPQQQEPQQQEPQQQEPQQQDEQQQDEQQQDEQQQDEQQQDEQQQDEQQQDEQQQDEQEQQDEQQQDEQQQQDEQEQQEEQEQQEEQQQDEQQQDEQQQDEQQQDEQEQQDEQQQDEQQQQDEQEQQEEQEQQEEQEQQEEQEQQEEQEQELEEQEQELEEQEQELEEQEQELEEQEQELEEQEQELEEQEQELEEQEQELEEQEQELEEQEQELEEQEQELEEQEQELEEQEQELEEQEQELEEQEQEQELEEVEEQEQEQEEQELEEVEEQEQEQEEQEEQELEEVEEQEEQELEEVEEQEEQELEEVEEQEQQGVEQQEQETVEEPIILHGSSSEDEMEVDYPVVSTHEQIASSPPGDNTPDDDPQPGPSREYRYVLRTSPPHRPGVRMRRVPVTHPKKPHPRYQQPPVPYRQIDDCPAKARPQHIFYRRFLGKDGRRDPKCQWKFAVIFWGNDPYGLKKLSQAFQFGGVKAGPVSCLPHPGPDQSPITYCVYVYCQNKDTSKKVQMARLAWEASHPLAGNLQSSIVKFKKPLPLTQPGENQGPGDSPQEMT
# Beta apoptosis: beta cell apoptosis inhibition; actives 0.8% (n = 300,000); INS-1E cytokine-induced death, ATP luminescence, 48 h; percent of positive-control rescue, neutral wells zero; protection from apoptosis, % (test concentration not listed); AID 435005;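 active means all replicates at 75% or more, or half of them and the mean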;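 further: 0% = cytokine-treated negative control wells and 100% = positive control rescue; higher means more ATP so stronger rescue from cytokine killing; wells of about 40 µL received 100 nL stock; the first replicate is given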
# T cruzi inh: blocks replication of Trypanosoma cruzi | T. cruzi beta-gal in NIH3T3, luminescence, 90 h | inhibition, % (test concentration not listed) | actives 1.4% (n = 300,000) | AID 1885;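 active means mean inhibition across valid replicates above about 55%, limit read from the data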;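 further: signal also drops with host cell toxicity which is not excluded here; 0% = plate median of DMSO wells and 100% = zero luminescence signal; higher percent means less beta-gal luminescence so fewer parasites; stock transfer was 50 nL into about 50 µL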
# B2AR ag: activates human beta-2 adrenergic receptor causing internalization; P07550; response, % (test concentration not listed); actives 0.43% (n = 340,000); Am2.2-beta2AR cells, FAP receptor internalization, flow cytometry; reference of the scale not given here;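 active means response above a set limit, near 3 SD of response in nonfluorescent compounds, cut at about 42% in these data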;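 further: stock transfer was 100 nL into about 11 µL; a reference agonist was the positive control; negative values mostly stem from fluorescent compounds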
# Ecoli rRNA inh: selective bacterial rRNA inhibition in E. coli. E. coli WT GFP vs humanized-ribosome RFP mutants, fluorescence, 24 h; stronger effect = lower value; DMSO median 0, no signal -100. GFP signal change (wild-type ribosome), % (concentration not given with the values). actives 1.6% (n = 350,000);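 active means significant combined selectivity score with lowered wild-type GFP, culture density cut under 30%, mutant RFP and density less affected; inactive means any of these conditions unmet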; further: one replicate is shown; some compounds called inactive have numbers as strong as hits
# Ecoli rRNA inh OD600: also measured in Ecoli rRNA inh; calls as there; OD600 change, %; measured here: OD600 growth;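 optical density of the mix in the first replicate; 0 = DMSO median and -100 = no signal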
# Ecoli rRNA inh RFP: also measured in Ecoli rRNA inh; calls as there; RFP signal change, %; measured here: RFP humanized mutant strains;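 first replicate; 0 = DMSO median and -100 = no signal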
# Active calls of the source: *; x = not tested or not shown; + = active, no number.
SMILES,Calb FLC,A1 inh,ALR inh,LANA-H2B inh,Beta apoptosis,T cruzi inh,B2AR ag,Ecoli rRNA inh,Ecoli rRNA inh OD600,Ecoli rRNA inh RFP
CCCCN(C(=O)c1ccc(S(=O)(=O)N2CCC(C)CC2)cc1)C1CCS(=O)(=O)C1 (stereo unspecified),3,-0.1,-6,-0.9,2,4,4,-1,-1,-0.2
CN(C)CCNC(=S)Nc1ccc(Cl)cc1Cl,-4,-0.6,2,2.2,0,41,-4,4,7,-2.0
O=C(c1cc2ccccc2s1)N1CCN(c2ccccn2)CC1,28,0.3,0,-1.9,-2,0,-6,-8,-20,1.2
C/C=C(/C)C(=O)O[C@H]1[C@@H](O)c2c(ccc3ccc(=O)oc23)OC1(C)C,-11,0.9,-8,-3.7,8,-2,-6,x,x,x
C[C@H]1C(=O)N(C)CCN1C(=O)c1cccc(OC2CCN(CC(C)(C)C)CC2)c1,8,-0.1,-4,2.7,-8,-15,7,1,4,-0.1
CC1(C)CC(=O)c2c(Cc3ccccc3)n[nH]c2C1,-16,-0.3,3,5.4,-12,16,-2,x,x,x
COc1ccc2nc(NC(=O)CN3CCOCC3)sc2c1,-6,0.1,-18,4.3,-4,-25,8,x,x,x
O=c1c2ccccc2oc2ccc(-c3ccc4cc[nH]c4c3)cc12,x,-1.9,1,11,-4,x,23,x,x,x
COc1ccc(/C(O)=C2/C(=O)C(=O)N(CCN3CCOCC3)C2c2ccccn2)cc1 (stereo unspecified),x,0.0,-88,1.6,-7,x,-1,x,x,x
COc1ccccc1C1NC=C([N+](=O)[O-])C=C1[N+](=O)[O-] (stereo unspecified),-14,-1.3,12,3.5,3,78*,7,0,0,-3.5
Cc1cc(NC(=O)c2cccc(F)c2)no1,3,-0.2,1,-4.3,-1,-8,9,x,x,x
CCOc1ccc(/C=C2\SC(=S)N(CCC(=O)Nc3ccccc3C(=O)O)C2=O)cc1,-2,-1.0,9,0.0,-6,12,5,-8,-10,-7.4

# Shown with bars between the fields: 2 of the compounds above
structure | Calb FLC | A1 inh | ALR inh | LANA-H2B inh | Beta apoptosis | T cruzi inh | B2AR ag | Ecoli rRNA inh | Ecoli rRNA inh OD600 | Ecoli rRNA inh RFP
C[C@H]1C(=O)N(C)CCN1C(=O)c1cccc(OC2CCN(CC(C)(C)C)CC2)c1 | 8 | -0.1 | -4 | 2.7 | -8 | -15 | 7 | 1 | 4 | -0.1
C/C=C(/C)C(=O)O[C@H]1[C@@H](O)c2c(ccc3ccc(=O)oc23)OC1(C)C | -11 | 0.9 | -8 | -3.7 | 8 | -2 | -6 | x | x | x

# (continued)
SMILES,Calb FLC,A1 inh,ALR inh,LANA-H2B inh,Beta apoptosis,T cruzi inh,B2AR ag,Ecoli rRNA inh,Ecoli rRNA inh OD600,Ecoli rRNA inh RFP
COc1ccccc1C(=O)Nc1ccccc1SC,42,0.7,13,-7.4,-6,3,-12,x,x,x
COc1ccc(NC(=O)CC(C)c2ccccc2)cc1S(=O)(=O)N1CCOCC1 (stereo unspecified),x,0.0,-3,2.3,-1,x,-1,0,0,0.0
COc1cc(/C=C/C(=O)O)cc(S(=O)(=O)N2CCCc3ccccc32)c1OC,11,-0.5,-3,-1.2,2,-4,-3,-10,-1,0.2
CCOc1ccc(-n2nc3cc(C)c(N)cc3n2)cc1,15,-0.7,-1,0.5,6,2,-7,8,6,0.5
NS(=O)(=O)c1cccc(NC(=O)CN2CCN(Cc3ccc4c(c3)OCO4)CC2)c1,6,-0.2,-17,-5.0,1,-2,-1,x,x,x
CC(Oc1ccccc1)c1ccnn1S(=O)(=O)c1ccccc1 (stereo unspecified),15,0.2,-8,-1.4,-7,6,18,x,x,x
CCOC(=O)N1CCC(Nc2nc3ccccc3n3nnnc23)CC1,2,0.7,7,-2.1,2,1,8,x,x,x
CCOc1ccc(CCNC(=O)c2ccc(F)c(S(=O)(=O)N3CCOCC3)c2)cc1OCC,5,0.5,1,-9.5,-2,9,-3,19,8,1.3
COC(=O)c1sc2ccccc2c1NC(=O)c1ccc(S(=O)(=O)N2CCC(C)CC2)cc1,3,-0.5,-4,5.0,-9,4,30,13,10,2.2
O=C(CCNC(=O)c1ccccc1Cl)Nc1nc(-c2ccc3ccccc3c2)cs1,22,0.5,-15,-0.7,2,56*,0,-20,-28,8.1
CCOC(=O)C1=C(C)N=c2s/c(=C/c3cccc([N+](=O)[O-])c3O)c(=O)n2C1c1ccccc1 (stereo unspecified),-4,-0.2,2,1.8,-1,11,18,5,8,0.9
COC(=O)C1C(=O)C2=C(CC1C)NC(C)=C(C(=O)OC1CCCCC1)C2c1ccc(N(C)C)cc1 (stereo unspecified),3,-0.4,-20,-0.8,1,25,-18,x,x,x
COC(=O)c1c(NC(=O)CN(C)CC(=O)Nc2ccc(C)cc2)sc2c1CCC(C)C2 (stereo unspecified),x,-0.1,-1,-4.5,-2,x,5,x,x,x
NC(=O)[C@@H]1CC2(CC(c3cccc(NC(=O)CC(c4ccccc4)c4ccccc4)c3)=NO2)CN1C(=O)COc1ccc(Cl)cc1 (stereo partly specified),20,0.0,8,5.9,0,49,8,-3,5,-1.1
COc1cccc2cc(CC(=O)c3ccc(C)cc3C)c(=O)oc12,-1,-0.2,-5,0.0,9,2,-5,1,-9,-4.2
CC(C)NC(=O)C1CC(=O)N(C(C)c2ccccc2)C1 (stereo unspecified),-7,-0.2,-29,-2.8,-4,-11,-1,x,x,x
CCCc1ccc(C(=O)O/N=C(\N)c2ccccn2)cc1,0,-7.8,-3,-3.2,1,40,-8,-27,-27,-17
Cc1cc(C)n(CC(=O)Nc2cccc(C(F)(F)F)c2)n1,-18,-0.5,-1,3.3,-1,-5,-7,14,7,0.2
Cc1ccc(N2CCN(C(=O)N3CCCC3)CC2)cc1Cl,-20,0.7,98*,-5.8,-3,7,-13,x,x,x
Oc1ccccc1-c1cc(C(F)(F)C(F)F)nc(-c2ccccc2)n1,-3,1.1,-13,-0.7,-4,x,4,x,x,x
C/C=C/C=[N+](\[O-])C(C)/C(=N/O)c1ccc(F)cc1 (stereo unspecified),-9,0.0,9,-2.0,-5,-7,3,x,x,x
Cc1ccc(C2CC(c3cccs3)n3nc(N)nc3N2)cc1 (stereo unspecified),-22,0.6,1,-0.3,x,31,4,x,x,x
CCN=C1S/C(=C\c2sccc2C)C(=O)N1CC,-23,-1.4,-12,3.7,0,21,-6,-14,-7,-3.8
Cc1ccc(N(CC(=O)N2CCOCC2)S(=O)(=O)c2ccccc2)cc1,2,0.6,2,2.9,2,0,1,x,x,x
O=C(C1=C(O)C(=O)N(CCOCCO)C1c1cccc([N+](=O)[O-])c1)c1cccs1 (stereo unspecified),-5,0.5,3,-1.0,3,-18,2,7,4,-1.9
O=C(O)c1ccc(Cl)c(S(=O)(=O)N2CCC(Cc3ccccc3)CC2)c1,11,-0.1,7,-2.4,-1,-3,0,-10,-28,-0.9
CCOc1ccc(N2C(=O)S/C(=C\c3cc(OC)c(OC)c(OC)c3)C2=O)cc1,-12,0.1,x,-5.4,10,6,11,5,6,-1.9
CCOCCCn1c(=S)[nH]c2cc(C(=O)NCCOC)ccc2c1=O,0,2.3,x,3.9,-3,-8,-7,x,x,x
Cc1onc(-c2c(F)cccc2Cl)c1C(=O)NC(C)c1ccccc1 (stereo unspecified),-5,-1.6,1,-2.8,x,8,0,-3,2,1.8
O=C(Cc1ccccc1)c1ccc(Cl)cc1,-6,-0.9,-15,0.4,-5,2,-6,-2,2,-2.3
COc1cc2c(cc1OC)C(CC#N)=NC(C)(C)C2,2,0.8,48,-2.2,-3,9,-1,x,x,x
Cc1cccc(NC(=O)Nc2cnccn2)c1,0,0.3,1,-0.9,-7,-12,6,6,2,-0.2
COc1ccc(NCc2nc3ccccc3n2CCOc2ccc(C)cc2)cc1,16,0.2,x,x,41,39,0,-17,-36,26
CCCc1nnc(NC(=O)c2c(O)c3c([nH]c2=O)CCCC3)s1,12,-0.6,-13,2.2,-1,-13,-10,x,x,x
O=C(Cn1[nH]c(=O)c2ccccc2c1=O)NCCN1C(=O)S/C(=C\c2ccccc2)C1=O,x,1.7,-4,5.0,0,x,-3,2,11,-0.4
O=C(Nc1ccccc1)c1cccc(C(=O)Nc2ccccc2)n1,-1,0.5,2,4.7,-4,5,-4,11,19,-2.1
C[N+]1(CC2COC3(CCCCC3)O2)CCCC1 (stereo unspecified),1,-0.3,0,-2.3,-3,-4,8,9,20,5.8
O=C(CC1C(=O)NCCN1Cc1cccc(Oc2ccccc2)c1)NCCn1cccn1 (stereo unspecified),-21,0.0,x,1.0,-1,3,1,0,1,0.6
COc1ccccc1NC(=S)NCc1ccccc1Cl,-16,0.2,-7,3.9,0,-6,-3,-1,-2,-1.1
O=c1cc2c(n[nH]1)-c1ccccc1CC2,1,1.4,30,4.3,-11,1,4,6,17,0.1
N#CC(c1ccccc1)c1ccc(=O)[nH]n1 (stereo unspecified),7,-0.5,4,2.0,0,0,1,-1,-1,-1.0
Cc1cc(C)n2nc(C(=O)Nc3ccc4c(c3)OCO4)cc2n1,24,-4.1,-4,-374,4,14,0,x,x,x
COc1ccc(S(=O)(=O)Nc2cccc(-c3ccc(N4CCCCCC4)nn3)c2)c(OC)c1,1,-0.4,-6,0.7,8,5,-5,2,-21,-3.2
COc1ccc(C(=O)C2CCCN(C(=O)Cc3c(C)noc3C)C2)cc1OC (stereo unspecified),18,0.4,-6,-3.5,0,24,12,3,-4,-0.9
COc1cc(C2(c3ccc(O)c(OC)c3)C(=O)Nc3c(Br)cc(Br)cc32)ccc1O,-2,1.2,31,-12,x,12,4,-48*,-27*,-10.0*
CC(C(=O)N1CCOCC1)N1C(=O)c2cccc3cccc(c23)C1=O (stereo unspecified),-5,0.0,-5,-0.4,-5,-7,1,2,6,0.6
O=C(Cc1ccccc1)NCC(=O)N/N=C/c1cccs1,5,1.3,-2,1.0,4,-1,10,0,6,2.9
CC(=O)Nc1ccc(-c2ccc(NC(C)=O)c(O)c2)cc1O,11,-2.7,7,-8.8,1,4,0,-2,-1,1.3
CN1CCSc2ccc(C(=O)NCc3ccccc3)cc21,-1,-0.8,39,-4.6,-4,-9,-6,2,-19,-2.5
COc1ccc(C(=O)c2ccc(OC)cc2OC)cc1,-5,0.3,3,3.5,-1,5,-27,-1,-12,-2.9
O=C(COC(=O)c1cccnc1Cl)Nc1ccc(N2CCCCC2)cc1,x,0.4,x,+,-4,x,-5,-6,-3,9.1
COc1ccccc1C(=O)c1cc2ccc(O)cc2oc1=O,-13,0.2,8,-8.1,-6,-16,15,-12,-11,0.1
COc1ccc(C)cc1N(C(=O)COc1ccccc1)c1nc2ccccc2s1,2,0.2,21,9.8,-8,17,13,x,x,x
Cc1c(NC(=O)Nc2ccc3c(c2)OCO3)c(=O)n(-c2ccccc2)n1C,10,1.0,-30,-3.0,-14,-11,5,x,x,x
O=C(CN(Cc1ccccc1F)C(=O)Cn1nnc(-c2cccs2)n1)NC1CCCCC1,-10,0.8,1,4.1,-2,-1,-11,x,x,x
CCC1CCCCN1CCCNC(=O)c1csc2c1CCCCC2 (stereo unspecified),-29,0.0,-3,-1.5,-3,19,-1,6,7,-1.2
CCN1CCC(NC(=O)Nc2cc(Cl)ccc2OC)CC1,-18,0.1,-8,3.6,2,12,4,10,8,3.8
O=S(=O)(CCc1nc2ccccc2s1)c1ccc(Cl)cc1,8,0.4,-25,1.4,x,-8,-4,x,x,x

# The list is partial (hit frequency here may not be typical).
